Vif A3G – HIV-1 Vif–A3G interaction blockers – biochemical, TR-FRET, GST-Vif 1-94, biotin-A3G peptide, dose response retest, primary screen (AID 1117319); TR-FRET GST-Vif / biotin-A3G peptide binding; higher % means a stronger effect; test concentration not given here; strong numbers were not always called active; inhibition, %; hits with a dose series show IC50 in µM; 260,000 compounds, 0.57% hits;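 active means above the screen mean plus three standard deviations and confirmed in dose response; inconclusive means results disagree or hit not tested in dose response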;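 further: Vif residues 1-94 fused to GST binding biotinylated APOBEC3G peptide 110-148; 0% = full assay without inhibitor and 100% = GST in place of GST-Vif; retest series ran down from 100 µM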
T cruzi inh – T. cruzi replication inhibition; T. cruzi beta-gal in NIH3T3, luminescence, 90 h; inhibition, % (concentration not given with the values); 300,000 compounds, 1.4% hits; AID 1885;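 active means mean inhibition across valid replicates above about 55%, limit read from the data; inconclusive means mean below that limit but half or more replicates reach it; inactive means mean below it, under half of replicates reach it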;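 further: signal also drops with host cell toxicity which is not excluded here; 0% = plate median of DMSO wells and 100% = zero luminescence signal; higher percent means less beta-gal luminescence so fewer parasites; stock transfer was 50 nL into about 50 µL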
RanGTP-Imp inh – disruptors of Ran-importin-beta complex formation – biochemical, FRET, CFP-Ran, YFP-importin-beta, homogeneous, primary screen | cell-free CFP-Ran/YFP-importin-beta FRET ratio | inhibition, % (no concentration beside the values) | 300,000 compounds, 1.1% hits | AID 2216;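 active means most replicates above 15%; inconclusive means exactly half above 15%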;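 further: 0% = DMSO wells and 100% = Ran loaded with GDP instead of GTP; wells of about 40 µL received 100 nL stock; the first replicate is given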
Calb FLC – affects C. albicans growth with fluconazole; growth inhibition, % (concentration not given with the values); AID 1979; C. albicans CaCi-2 (fluconazole-resistant clinical isolate) + fluconazole, Alamar Blue growth, 48 h; 300,000 compounds, 0.57% hits;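 active means most replicates above 75%; inconclusive means exactly half above 75%; inactive means most below 75%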;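 further: all wells also contain fluconazole at 8 µg/ml as a sub-toxic cotreatment; 0% = median of DMSO wells and 100% = median of geldanamycin control wells; wells of about 8 µL received 7.5 nL stock; the first replicate is given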
rRNA inh HTS – selective bacterial rRNA inhibition in E. coli. E. coli WT GFP vs humanized-ribosome RFP mutants, fluorescence, 24 h; stronger effect = lower value; DMSO median 0, no signal -100. GFP signal change (wild-type ribosome), % (concentration not given with the values). 350,000 compounds, 1.6% hits. AID 720706;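 active means significant combined selectivity score with lowered wild-type GFP, culture density cut under 30%, mutant RFP and density less affected; inactive means any of these conditions unmet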; further: one replicate is shown; some compounds called inactive have numbers as strong as hits
MLL AF4-AF9 inh – inhibitors of human MLL-AF4/AF9 interaction. P42568. AlphaScreen, biotin-AF4 peptide binding to FLAG-AF9. inhibition, % at 10 µM. 350,000 compounds, 0.47% hits. AID 651704;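 active means every replicate reaching a set inhibition limit, whatever the replicate mean, cut at about 25% in these data; inconclusive means mean inhibition reaches that limit but some replicates miss it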;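 further: 0% = plate neutral control median and 100% = total signal loss; the record names both 10 and 1 µM as test concentration; the first replicate is given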
Target sequence (P42568 whole entry, looked up): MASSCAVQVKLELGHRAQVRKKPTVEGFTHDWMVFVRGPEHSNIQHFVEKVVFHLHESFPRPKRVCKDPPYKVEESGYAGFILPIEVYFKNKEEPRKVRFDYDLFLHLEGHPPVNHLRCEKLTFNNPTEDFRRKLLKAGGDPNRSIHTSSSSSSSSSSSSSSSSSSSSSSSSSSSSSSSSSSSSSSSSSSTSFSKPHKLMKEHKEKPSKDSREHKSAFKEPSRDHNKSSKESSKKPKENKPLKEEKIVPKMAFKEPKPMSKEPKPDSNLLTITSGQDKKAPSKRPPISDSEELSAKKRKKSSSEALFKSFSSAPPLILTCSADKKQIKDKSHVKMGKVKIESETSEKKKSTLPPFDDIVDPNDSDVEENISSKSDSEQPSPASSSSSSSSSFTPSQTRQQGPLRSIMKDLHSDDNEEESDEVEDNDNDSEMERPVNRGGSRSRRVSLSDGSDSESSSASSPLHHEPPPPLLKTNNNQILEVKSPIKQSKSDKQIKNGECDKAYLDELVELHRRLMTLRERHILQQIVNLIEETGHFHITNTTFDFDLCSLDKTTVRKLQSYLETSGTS
Beta cell apopt – blocks beta cell apoptosis; INS-1E cytokine-induced death, ATP luminescence, 48 h; percent of positive-control rescue, neutral wells zero; protection from apoptosis, % (concentration not given with the values); 300,000 compounds, 0.8% hits; AID 435005;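 active means all replicates at 75% or more, or half of them and the mean; inconclusive means half reach 75% but not the mean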;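 further: 0% = cytokine-treated negative control wells and 100% = positive control rescue; higher means more ATP so stronger rescue from cytokine killing; wells of about 40 µL received 100 nL stock; the first replicate is given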
Bfl-1 A1 inh – inhibitors of the anti-apoptotic protein A1, read as caspase activation; MEF A1-2A-BIM cells, Caspase-Glo 3/7 luminescence, 3 h; percent of clofoctol response, vehicle zero; caspase activation, % (test concentration not listed); 330,000 compounds, 0.066% hits; AID 2462;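 active means over half of replicate activation scores above 10%, or exactly half above 10 with the replicate mean above 10; inconclusive means replicate mean below 10 yet half the replicates above 10; inactive means over half of replicates below 10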;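 further: wells of about 30 µL received 50 nL stock; many hits fall short of the cut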
rRNA inh HTS OD600 – also measured in rRNA inh HTS; calls as there; OD600 change, %; measured here: OD600 growth;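 optical density of the mix in the first replicate; 0 = DMSO median and -100 = no signal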
rRNA inh HTS RFP – recorded beside rRNA inh HTS, whose call it bears; RFP signal change, %; measured here: RFP humanized mutant strains;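 first replicate; 0 = DMSO median and -100 = no signal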
Starred values were filed as active, the others as inactive; ? = inconclusive; nt = not tested or not shown. The list is partial; rates above refer to the full screens.

SMILES	Vif A3G	T cruzi inh	RanGTP-Imp inh	Calb FLC	rRNA inh HTS	rRNA inh HTS OD600	rRNA inh HTS RFP	MLL AF4-AF9 inh	Beta cell apopt	Bfl-1 A1 inh
CC(=O)c1ccc(NC(=O)c2ccc(CNc3c(N4CCOCC4)c(=O)c3=O)cc2)cc1	6%	-7	-0.6	-2	2	3	-2.1	-39	-2	0.4
COC(=O)c1cc(S(=O)(=O)N(Cc2ccccc2)C(C)(C)C)c[nH]1	nt	4	-0.8	1	-9	-33	-5.2	2.6	3	2.2
CCN(CC)CCC(=O)N1c2ccccc2CCc2ccc(NC(=O)OC(C)C)cc21	nt	1	0.9	14	4	2	-0.9	3.7	-6	0.0
CCn1ccnc1C(O)(c1ccccc1)c1ccccc1	nt	0	-0.8	-4	8	4	2.0	-4.2	-8	-0.2
CCOc1ccc2nc(N3CCCC(C(=O)NC4CCCC4)C3)sc2c1 (centres undefined)	-2%	5	-0.2	-5	2	14	-3.8	-2.6	-5	-0.9
Cc1ccc(C(=O)N/C(=C/c2cn(-c3ccccc3)nc2-c2ccccc2)C(=O)O)cc1	-4%	7	1.7	18	-17	-2	-7.6	4.4	3	0.0
Cc1c(CN2CCC(CO)(CCOc3ccccc3)CC2)[nH]c2ccc(Cl)cc12	8%	8	0.0	26	-58	-78	-18	19	1	-0.8
O=C(CSc1nnnn1-c1ccccc1)CSc1nnnn1-c1ccccc1	?	2	3.4	39	-28*	-8.9*	12*	-0.7	nt	0.8
CCN(CC)c1nc(C(N)=O)cc(-c2ccccc2)n1	12%	15	0.9	26	nt	nt	nt	nt	2	-0.1
Cc1ccc(CNC(=O)C2CCC(=O)N(CCc3ccccn3)C2)s1 (centres undefined)	nt	-8	-1.1	-1	8	14	-0.6	-3.1	1	1.1
Cc1ccc(OCCC(=O)N(CC(=O)Nc2ccccc2C(F)(F)F)Cc2ccco2)cc1	3%	-9	-0.7	-1	-7	3	2.2	1.0	-5	0.5
CC(C)c1ccc(NC2CCCN(C(=O)CCN3CCOCC3)C2)cc1 (centres undefined)	nt	15	0.8	4	0	2	-0.4	3.3	3	-0.6
COc1ccccc1CNC(=O)C1CC(c2c(Cl)cccc2Cl)=NO1 (centres undefined)	-3%	12	?	-4	-30	-27	1.2	-20	-3	0.3
CC(C)(O)C#Cc1ccc(C(=O)NCc2ccccc2F)cc1	2%	-1	2.5	-1	-3	-5	-9.5	7.1	0	0.0
CC1(OC(=O)C2CCCC2)C(=O)C=C2C=C(c3ccsc3)OC=C2C1=O (centres undefined)	8.8µM*	-9	1.3	4	8	2	15	-0.7	-4	0.3
CC(C)CN1C(=O)C(=O)N(CC(=O)Nc2cccc(Cl)c2Cl)C1=O	-7%	nt	nt	nt	nt	nt	nt	-2.6	-4	0.0
Cc1cccc(OCCC(=O)Nc2ccc(Cl)cc2F)c1	nt	1	?	-3	2	8	-0.9	0.3	-6	0.0
COc1ccc(-c2c(-c3ccc(OC)c(F)c3)c3ccccc3n2C)cc1	nt	nt	nt	nt	1	-5	-0.7	-0.6	1	0.9
Cc1ccccc1-n1c(SCC(=O)N2CCOCC2)nc(O)c(Cc2ccccc2)c1=O	nt	-10	3.8	11	12	9	3.3	-11	-3	-0.5
O=C(O)c1cccc(C(=O)Cc2ccccc2)c1	-1%	0	7.1	-14	nt	nt	nt	nt	-1	-12
COc1ccccc1-c1nnc(NC(=O)Cc2ccccc2)o1	nt	-11	-0.7	-11	-5	-4	-2.7	-0.3	2	0.1
Cc1ccc(NC(=O)N2CCC(C(=O)NCc3ccc(F)cc3)CC2)cc1	12%	3	-1.3	-5	nt	nt	nt	nt	1	0.3
COc1ccc(NC(=O)COc2ccccc2Cc2ccccc2)cn1	26%	nt	nt	nt	-54	-75	-14	-0.5	-1	-0.7
COCC(=O)Nc1cccc2ccccc12	3%	-10	-1.1	6	nt	nt	nt	nt	-3	0.7
COc1ccccc1NC(=O)c1ccc(NC(=O)COC(=O)C(C)C)cc1	1%	-2	-3.4	-23	nt	nt	nt	nt	2	0.2

Next part, overlapping the part above by 2 compounds.
SMILES	Vif A3G	T cruzi inh	RanGTP-Imp inh	Calb FLC	rRNA inh HTS	rRNA inh HTS OD600	rRNA inh HTS RFP	MLL AF4-AF9 inh	Beta cell apopt	Bfl-1 A1 inh
COCC(=O)Nc1cccc2ccccc12	3%	-10	-1.1	6	nt	nt	nt	nt	-3	0.7
COc1ccccc1NC(=O)c1ccc(NC(=O)COC(=O)C(C)C)cc1	1%	-2	-3.4	-23	nt	nt	nt	nt	2	0.2
Fc1ccccc1CN1CCN(c2ncccn2)CC1	nt	-2	0.6	4	3	4	-2.5	2.6	-2	-1.5
COC(=O)Nc1cc(C(=O)c2ccc(Cl)cc2Cl)c[nH]1	-5%	35	-1.5	-22	-47*	-3.7*	7.4*	8.2	-3	-0.5
Cc1cc(=O)oc2cc(NC(=O)Cc3ccccc3[N+](=O)[O-])ccc12	-6%	-5	-1.2	7	2	10	-2.5	-0.2	3	-0.1
O=C(COC(=O)c1ccc(Cl)s1)c1ccc[nH]1	-4%	7	1.0	-10	-13	-4	9.5	-4.7	-4	-0.6
CC(=O)c1csc(COc2cc(Cl)cc(Cl)c2)n1	1%	2	-1.6	-1	nt	nt	nt	-1.1	0	0.0
COc1ccc(CN2CCC(Oc3ccc(C(=O)N4CCCC4)cc3)CC2)c(F)c1	nt	6	?	-21	5	10	-0.6	1.6	2	0.5
COc1ccc(-c2[nH]ncc2CN2CCCC(C(=O)c3cccc(OC)c3)C2)cc1 (centres undefined)	-5%	23	0.7	-1	6	1	3.4	2.3	-7	0.4
CC(C)Oc1ccccc1/C=N/NC(=O)C1CCCC1	nt	-6	3.3	25	9	19	3.0	-0.9	-6	-0.1
O=C1c2ccccc2C(=O)N1c1ccc(S(=O)(=O)N2CCCCC2)cc1	nt	-9	-2.5	-2	20	6	0.9	0.5	2	1.5
CC(C)c1ccc(N2C(=O)C(Cl)=C(N3CCOCC3)C2=O)cc1	nt	1	-5.7	-12	7	10	-1.5	38*	-4	0.0
Cc1cc(-c2ccc(C)c(S(=O)(=O)N3CC(=O)Nc4ccccc43)c2)on1	3%	-14	1.7	0	-5	-6	0.2	-1.9	-4	0.1
Cc1c(/C=N/NC(=O)c2ccc3c(c2)OCO3)cnn1C	-8%	-21	4.3	-22	nt	nt	nt	nt	-7	0.6
C=CCn1c2c(c(=O)[nH]c1=S)CN(C(C)c1ccccc1)CN2 (centres undefined)	11%	-10	1.1	-8	12	9	0.8	-7.9	9	0.2
CCn1c(SCC(=O)Nc2ccccc2F)nnc1-c1cnccn1	nt	-9	1.7	-2	2	7	-1.3	-8.8	2	-0.1
Cc1ccc(N2C(=O)CC(NNc3nc4ccccc4s3)C2=O)cc1C (centres undefined)	-10%	-15	-1.2	-3	nt	nt	nt	nt	-8	1.2
CCCN1CCC(=NNc2ccc(S(=O)(=O)N(CC)CC)cc2[N+](=O)[O-])CC1	4%	8	1.2	-16	-7	-1	-5.1	5.1	-4	-0.2
N/C(Cc1ccc(Cl)cc1)=N\OC(=O)Cc1ccc([N+](=O)[O-])cc1	nt	21	1.4	-37	7	4	2.6	0.5	0	-0.7
C=CCNC(=O)CC1Nc2c3ccccc3nc(=S)n2C1=O (centres undefined)	10%	-11	-1.4	-6	1	11	-1.7	1.3	-2	-0.5
CCC(C)Sc1cc(C(F)(F)F)c(C(=O)Nc2ccc(Cl)cc2)cn1 (centres undefined)	0%	39	3.7	-38	-16	-19	1.4	-2.4	26	0.8
CC12CCC(=O)N1C(C(=O)NNC(=O)c1ccc(Br)cc1)CS2 (centres undefined)	-11%	nt	nt	nt	5	1	0.9	-6.3	0	-0.4
COc1cc(OC)cc(C(=O)Nc2c(F)cccc2F)c1	nt	-1	-3.3	-16	nt	nt	nt	nt	nt	-0.2
CCc1c(C(=O)N2CCN(c3ccccc3F)CC2)[nH]c(C)c1C(C)=O	7%	4	2.5	7	nt	nt	nt	nt	2	0.8
Cc1cc(C)cc(N(CC(=O)Nc2ccc(-c3nc4ccc(C)cc4s3)cc2)S(C)(=O)=O)c1	nt	12	5.8	-1	nt	nt	nt	nt	0	-0.9
O=C1C=C(c2cccc(Br)c2)C[C@@H](c2ccc(F)cc2)C1	nt	nt	nt	nt	-6	-17	-9.6	4.2	7	0.4
COc1ccccc1N1CCN(Cc2cccs2)CC1	3%	-18	7.8	-11	11	-1	-4.5	-34	-3	0.3

The results go on:
SMILES	Vif A3G	T cruzi inh	RanGTP-Imp inh	Calb FLC	rRNA inh HTS	rRNA inh HTS OD600	rRNA inh HTS RFP	MLL AF4-AF9 inh	Beta cell apopt	Bfl-1 A1 inh
Cc1cc(C)n2nc(C(=O)N/N=C/c3cn(C)nc3C)nc2n1	-2%	-10	3.3	5	12	3	-0.3	-2.9	-3	-0.4
CCCCOc1ccc(C(=O)NC(=S)Nc2ccc(CN3CCOCC3)cc2)cc1	-4%	10	2.7	-11	3	3	-0.5	3.0	-3	1.4
CC(Sc1nc2ncc(Cl)cc2[nH]1)C(=O)NC1(C#N)CCCCC1 (centres undefined)	14%	nt	nt	nt	-32	-59	-6.5	-2.0	6	-0.1
COc1ccc(Sc2cc(C(F)(F)F)nc(-c3ccccn3)n2)cc1	-1%	-19	-1.7	34	nt	nt	nt	nt	-4	-0.5
CS(=O)(=O)Nc1ccccc1NS(C)(=O)=O	?	-18	7.9	17	14	10	2.4	-0.1	-3	0.7
Cc1c(C)c2ccc(O)c(CN3CCCC3)c2oc1=O	2%	-5	9.5	-2	5	12	2.7	-0.2	-4	0.6
COC(=O)c1cccc(NS(C)(=O)=O)c1	?	-12	3.6	-2	17	19	7.4	-0.4	-16	0.0
O=C(CSc1nnnn1-c1ccccc1)NCC1(N2CCCCC2)CCCCC1	-17%	nt	nt	nt	17	10	2.9	-1.4	-3	1.9
COc1ccc([C@@H]2[C@H]3C(=O)N(c4cccc(C(F)(F)F)c4)C(=O)[C@H]3ON2C)cc1	0%	9	-6.2	7	nt	nt	nt	nt	2	0.5
COc1ccc(/C(O)=C2/C(=O)C(=O)N(CCN3CCOCC3)C2c2ccccn2)cc1OC (centres undefined)	17%	-9	29*	-5	nt	nt	nt	nt	3	-0.7
Cc1cc(OC(=O)C(C)(C)C)c([N+](=O)[O-])c(=O)[nH]1	-8%	-9	?	-7	3	1	-1.1	2.2	3	0.6
CCN(CC(=O)Nc1ccc2c(c1)OCO2)Cc1nc2ccccc2c(=O)[nH]1	18%	1	0.9	-8	nt	nt	nt	nt	-2	-0.2
CCN(CC)CCNC(=O)C12CC3CC(CC(C3)C1)C2	6%	16	-1.7	2	nt	nt	nt	nt	-3	-0.8
COc1ccccc1N1CCN(C(=O)CCc2ccccc2)CC1	nt	4	1.4	-5	7	5	2.6	5.5	-4	0.6
